# RE007 growth inh = qHTS Assay for Inhibitors of the HIV-1 protein Vpr; Potency, µM (series often up to 92.2 µM), for inactives: top-dose activity change, negative = less growth; S. pombe RE007 Vpr strain, BacTiter-Glo ATP luminescence, 24 h; control for the full effect not named in the record; 360,000 compounds, 0.21% hits; AID 651644, 2012; active = well fitted falling curve with a large enough effect; inconclusive = small, poorly fitted or top-dose-only effect; inactive = no such curve, though single readings can be large or run the other way;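 further: on the % scale 0 is the no-effect control and ±100 the full control effect; nearly all actives have a fitted effect of over 50% in size; the assay follows cell death caused by Vpr and the record does not say whether a fall means rescue or toxicity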
#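 Fission yeast strain RE007, carrying one chromosomally integrated HIV-1 vpr copy, was seeded at OD 0.01 in PMG+AL medium with 23 nL pinned compound. After 24 h at 30 °C and 99% humidity, viability was read by BacTiter-Glo luminescence.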
# StopGo reporter = High Throughput Screening for Foot and Mouth Disease Virus Antivirals. human cells with a luciferase reporter of 2A StopGo recoding; control for the full effect not named in the record. Potency, µM (titrated, usually from 57.9 µM), inactives show at the top dose signal change, negative = less light. 410,000 compounds, 1.2% hits; active = well fitted falling curve with a large enough effect; inconclusive = small, poorly fitted or top-dose-only effect; inactive = no such curve, though single readings can be large or run the other way; tested in HEK293T cells; further: on the % scale 0 is the no-effect control and ±100 the full control effect; nearly all actives have a fitted effect of over 45% in size; luciferase light after 4 h
# SARS PLpro yeast = qHTS of Yeast-based Assay for SARS-CoV PLP. Potency, µM (series often up to 32.9 µM), inactives show at the highest dose activity, positive = growth rescue. AID 485353, 2010. S. cerevisiae expressing SARS-CoV PLpro, growth rescue; control for the full effect not named in the record. 330,000 compounds, 0.19% hits; active means well fitted rising curve with a large enough effect; inconclusive means small, poorly fitted or top-dose-only effect; inactive means no such curve, though single readings can be large or run the other way; further: 0% is about no effect; nearly all actives have a fitted effect of over 55% in size; growth read by luminescence after 48 h
# Numbers without * were called inactive; ? = inconclusive; [ ] = remark or other dose. Potency means the concentration at half of the fitted maximal effect.
SMILES,RE007 growth inh,StopGo reporter,SARS PLpro yeast
CC(=O)c1ccc(S(=O)(=O)N2CCCCC2C(=O)O)cc1 (stereo not drawn),5.1%,9.6%,2.2%
CCN1C(=O)[C@H]2[C@@H](c3ccc(C)cc3)N3C(=O)N(c4cccc(Cl)c4)C(=O)[C@@]3(CC)[C@H]2C1=O,10.7%,-11.9%,0.9%
O=C(COC(=O)c1ncc(Cl)c(Cl)c1Cl)NCc1ccccc1,0.3%,-17.7%,-1.1%
COc1ccc(-c2cn3nc(C)c(C)nc3n2)cc1OC,11.2%,33.0%[activator],1.0%
Cn1cc(C(=O)OCC(=O)NC2(C#N)CCCC2)c2ccccc21,-15.8%,-10.3%,-10.6%
Cc1cc(C)cc(-n2ccnc2SCC(=O)c2c(N)n(C3CC3)c(=O)[nH]c2=O)c1,0.0%,-9.1%,-7.0%
CC1=CC(C)(C)N=C(Nc2nc(C)c3cc(C)cc(C)c3n2)N1,-5.4%,?,1.7%
Cc1ccc(NC(=O)Cc2cn(C)c3ccccc23)cc1F,3.6%,83.3%[activator],-2.2%
O=C1C=C(c2ccc3c(c2)OCO3)C[C@@H](c2ccc3c(c2)OCO3)C1,0.4%,1.3%,3.2%
Cc1cccc(C)c1NC(=O)COC(=O)CN1C(=O)C2CCCCC2C1=O (stereo not drawn),-11.9%,-6.3%,-0.4%
COC(=O)C1=C(c2cccc(C#N)c2)C[C@@H]2CC[C@H]1N2C(=O)NC1CC1,-4.7%,-16.6%,-1.2%
CC(=O)c1c(C)[nH]c(C(=O)COC(=O)CCNS(=O)(=O)c2ccc(C)c(C)c2)c1C,6.0%,-12.6%,-5.0%
O=C(NCC1CC1)c1onc(CSc2ccc(F)c(F)c2)c1C(=O)NCC1CC1,1.2%,-16.1%,-11.1%
O=C(Nc1cccc(F)c1)C1CCCCC1,?,8.5%,5.3%
COc1ccc(-c2nc(NC(=O)C3=NN(c4cccc(C)c4)C(=O)CC3)sc2C)cc1,7.1%,-17.0%,0.7%
O=C(CN1CCN(S(=O)(=O)c2cccc(F)c2)CC1)NCC1(N2CCOCC2)CCCCC1,5.3%,-19.3%,0.0%
COc1ccc(CNC(=O)Cn2ccc(N)nc2=O)cc1,10.1%,-10.9%,2.4%
Cc1cc(C(=O)OCC(=O)NCCc2ccccc2)c2ccccc2n1,2.5%,-26.2%,-8.0%
CC(C)c1ccc(-n2nnnc2SCC(=O)NC2CC2)cc1,1.1%,-6.5%,3.1%
CCN(CC(=O)Nc1ccccc1OC)C(=O)CN1C(=O)NC(C)(c2ccc(C)cc2)C1=O (stereo not drawn),-4.7%,-15.2%,0.1%
COc1ccc([C@@H]2[C@@H]3C(=O)N(C(C)(C)C)C(=O)[C@@H]3[C@]3(C)C(=O)N(c4cccc(Cl)c4)C(=O)N23)cc1,4.9%,1.7%,1.8%
O=C(CN1C(=O)NC(Cc2c[nH]c3ccccc23)C1=O)Nc1ccc(F)c(F)c1F (stereo not drawn),-3.4%,-5.0%,1.4%
COc1cccc(CNc2ccc(S(=O)(=O)N3CCN(C)CC3)cn2)c1,1.3%,-11.8%,-0.1%
CC(NC(=O)c1ccc(Cl)c(S(=O)(=O)N2CCCCCC2)c1)c1cccnc1 (stereo not drawn),0.4%,?,-9.4%

# Reprinted at random: 3 compounds from above.
SMILES,RE007 growth inh,StopGo reporter,SARS PLpro yeast
O=C(COC(=O)c1ncc(Cl)c(Cl)c1Cl)NCc1ccccc1,0.3%,-17.7%,-1.1%
CC(C)c1ccc(-n2nnnc2SCC(=O)NC2CC2)cc1,1.1%,-6.5%,3.1%
COc1ccc(CNC(=O)Cn2ccc(N)nc2=O)cc1,10.1%,-10.9%,2.4%

# Further compounds:
SMILES,RE007 growth inh,StopGo reporter,SARS PLpro yeast
CN(C)S(=O)(=O)c1ccc(N2CCCC2)c(C(=O)Nc2nccs2)c1,3.7%,-23.3%,1.1%
C[C@H](CO)N1C[C@H](C)[C@@H](CN(C)C(=O)Nc2ccccc2)Oc2ccc(NS(=O)(=O)c3cn(C)cn3)cc2C1=O,10.5%,-2.2%,-5.1%
CCc1ccc([C@H]2C(C(=O)O)=C[C@@H](CC)N2S(=O)(=O)c2ccc(C)cc2)cc1,50.3%,?,0.2%
CC1(c2cccc(Br)c2)NC(=O)N(CC(=O)Nc2ccc3c(c2)OCO3)C1=O (stereo not drawn),-0.4%,-18.9%,8.4%
Cc1cc(C(=O)NCCN2CCOCC2)c2ccccc2n1,-0.7%,-7.3%,-3.2%
Cc1ccc(-c2nn(-c3ccccc3)cc2C(=O)NCCCN2CCCC2=O)cc1,-2.0%,11.6%,1.4%
C=CC[C@H](CC(=O)NCCO)C(=O)N[C@H](COC(=O)[C@@H](CC=C)CC(=O)OC(C)(C)C)Cc1c[nH]c2ccccc12,1.1%,-17.4%,-2.2%
CSCCC(NS(=O)(=O)c1ccccc1F)C(=O)Nc1ccncc1 (stereo not drawn),3.0%,-9.8%,-4.1%
CCCn1c(=O)n(C)c(=O)c2c(SCC(=O)Nc3cc(C)on3)nc(C(C)(C)C)nc21,21.8%,?,-3.8%
COc1cc(OC)c(C(=O)NNC(=O)c2ccccc2-n2cccc2)cc1OC,17.9%,-28.7%,-2.6%
CCCOc1ccc(C(F)(F)F)cc1NC(=O)c1cc(C)on1,0.4%,-15.0%,-9.1%
c1ccc(CCc2cc3ccccc3[nH]2)cc1,-13.2%,39.5%[activator],-0.4%

# Another view of 3 compounds above:
compound | RE007 growth inh | StopGo reporter | SARS PLpro yeast
COc1ccc([C@@H]2[C@@H]3C(=O)N(C(C)(C)C)C(=O)[C@@H]3[C@]3(C)C(=O)N(c4cccc(Cl)c4)C(=O)N23)cc1 | 4.9% | 1.7% | 1.8%
O=C(CN1C(=O)NC(Cc2c[nH]c3ccccc23)C1=O)Nc1ccc(F)c(F)c1F (stereo not drawn) | -3.4% | -5.0% | 1.4%
COc1cccc(CNc2ccc(S(=O)(=O)N3CCN(C)CC3)cn2)c1 | 1.3% | -11.8% | -0.1%

# (next part)
SMILES,RE007 growth inh,StopGo reporter,SARS PLpro yeast
COc1ccc([C@H]2CC(=O)C=C(c3ccc(C)c4ccccc34)C2)cc1,-0.5%,-10.4%,4.8%
NC(=O)C1CCN(C(=O)c2ccc(Cl)c(S(=O)(=O)N3CCCCCC3)c2)CC1,-6.9%,39.6%[activator],-0.9%
NC(=O)C1CCN(C(=O)C2CC(=O)N(Cc3ccccc3)C2)CC1 (stereo not drawn),2.5%,-7.2%,2.6%
Cc1noc(C)c1NC(=O)N(C)C[C@@H]1Oc2ccc(NS(=O)(=O)c3c(C)noc3C)cc2C(=O)N([C@H](C)CO)C[C@H]1C,-2.1%,-13.5%,-2.1%
Cc1ccsc1C(=O)NC1CCCCC1C (stereo not drawn),?,14.9%,-0.4%
CC(=O)Nc1ccc(N=C(C2=C(O)c3ccccc3C2=O)c2ccccc2)cc1,31.1%,1.8%,-0.3%
COc1ccc2[nH]c3c(c2c1)CCN1C(=O)C(CC(=O)NCc2ccc(OC)c(OC)c2)C[C@H](C(=O)N2CCOCC2)[C@@]31CCC1CCCC1 (stereo partly drawn),2.8%,-17.8%,5.1%
COc1ccc(CN(C)C(=O)COc2cccc(-n3cnnn3)c2)cc1OC,11.6%,-9.2%,-0.3%
CSc1cc(C)[nH]c(=O)n1,-7.6%,-18.6%,0.3%
O=C(Nc1cc(-c2ccccc2)nn1-c1ccccc1)c1ccccc1F,11.6%,-9.0%,6.5%
COC(=O)C1=C(c2ccc(-c3ccccc3)c(F)c2)C[C@@H]2CC[C@H]1N2C(=O)NCCOc1ccccc1Cl,12.4%,?,2.5%
O=C(CC1SC(N2CCOCC2)=NC1=O)Nc1ccccc1F (stereo not drawn),-8.5%,-0.8%,0.4%
COc1ccc(Cl)cc1NC(=O)CN(C)C(=O)c1cc(=O)c2ccccc2o1,10.0%,-3.9%,-7.0%
CCOC(=O)/C(=N\Nc1cccc(C(F)(F)F)c1)N1CCOCC1,13.5%,-2.6%,-5.6%
COc1ccc(NC(=O)CN(C)C(=O)c2ccc3c(c2)NC(=O)CS3)cc1,9.6%,-3.8%,-4.5%
CCOC(=O)C1CCCN(C(=O)CCNS(=O)(=O)c2ccc(Br)cc2)C1 (stereo not drawn),-3.8%,-18.3%,-7.3%
COCCNC(=O)COc1ncnc2scc(-c3ccc(F)cc3)c12,6.9%,15.5%,-3.9%
CC(C)=CCC[C@](C)(O[C@@H]1O[C@H](CO[C@@H]2O[C@H](CO)[C@@H](O)[C@H](O)[C@H]2O)[C@@H](O)[C@H](O)[C@H]1O)C1CC[C@]2(C)C1C(=O)CC1[C@@]3(C)CC[C@H](O[C@H]4O[C@@H](CO)[C@H](O)[C@@H](O)[C@@H]4O)C(C)(C)C3CC[C@]12C (stereo partly drawn),10.5%,-12.6%,-3.4%
CC1CCCN(C(=O)COC(=O)COc2ccc(C#N)cc2)C1 (stereo not drawn),-3.6%,-13.2%,1.0%
O=C(NNC(=O)c1ccccc1-n1cccc1)c1ccc(Cl)nc1,-18.6%,-5.3%,-7.7%
Cc1ccc(S(=O)(=O)N(C)C[C@H]2Oc3ccc(NC(=O)C4CCCCC4)cc3C(=O)N([C@H](C)CO)C[C@H]2C)cc1,-16.5%,30.2%[activator],0.2%
O=C1C=C(NC2CCCCC2)CCC1,-6.6%,-4.0%,-2.2%
COc1cc(C(C(=O)NCc2ccccc2)N(Cc2ccco2)C(=O)c2cnccn2)cc(OC)c1OC (stereo not drawn),2.1%,-11.3%,-0.7%
O=C(Nc1cc([N+](=O)[O-])ccc1O)NC1CCS(=O)(=O)C1 (stereo not drawn),6.5%,-14.0%,4.5%
C=CCN1C(=O)C(CC(=O)O)S/C1=N/N=C/c1ccc(N(CC)CC)cc1 (stereo not drawn),-17.9%,-0.3%,-9.9%
CCOc1ccc(N(C)S(=O)(=O)c2ccc(C)c(C(=O)NCc3cccs3)c2)cc1,-1.5%,-5.7%,-0.9%
O=C(Cc1ccc(F)cc1)N[C@@H]1c2ccccc2CC[C@H]1OCc1ccccc1,2.1%,-0.7%,16.8%
CN(CC(=O)Nc1ccc(Cl)cc1)C1=NS(=O)(=O)c2ccccc21,8.1%,-13.5%,-0.7%
CCN(C(=O)CSc1nnc(-c2ccco2)n1CC)c1c(N)n(Cc2ccccc2)c(=O)[nH]c1=O,3.0%,-12.6%,3.2%
COc1cc(C(C)=O)ccc1O,-12.8%,-3.6%,-3.3%
CCC(C)(C)C1CCc2[nH]nc(C(=O)NC3CCCC3)c2C1 (stereo not drawn),-7.7%,0.0%,1.9%
CCCS(=O)(=O)N1CCN=C1SCc1cccc2ccccc12,-6.1%,-7.7%,2.1%
Cc1nnc2ccc(-c3ccc(NC(=O)c4ccco4)cc3)nn12,39.1%,18.0%,0.2%
COc1ccc(C2=CC(=O)C[C@H](c3ccc(F)cc3)C2)cc1OC,-5.1%,-18.1%,-4.1%
COC(=O)[C@@]1(C)[C@H]2C(=O)N(Cc3ccccc3)C(=O)[C@H]2[C@H]2CN=C(SCc3ccccc3)N21,-13.6%,-2.9%,28.6%
Cc1ccc(S(=O)(=O)N2CCN(C(=O)CCCN3C(=O)NC4(CCCC4)C3=O)CC2)cc1C,0.2%,?,-3.3%
Cc1ccc(NC(=O)COC(=O)c2ccc(Cl)nc2)cc1S(=O)(=O)N1CCCCC1,11.5%,-21.7%,0.3%
C#CCOCCOCCOCCNc1nc(N2CCN(C(=O)[C@H](CCC(=O)O)n3cc([C@@H](N)[C@H](C)CC)nn3)CC2)nc(N2CCN(C(=O)[C@H](CCC(=O)O)n3cc([C@@H](N)CCSC)nn3)CC2)n1,8.5%,-2.2%,-1.0%
O=C(CCNS(=O)(=O)c1ccccc1)NNC(=O)COc1ccc(Cl)cc1,6.1%,1.1%,-14.4%
Cc1ccc2c(c1)C1CN(C)CCC1N2S(=O)(=O)c1ccc(C#N)cc1 (stereo not drawn),3.6%,-16.3%,0.1%
COc1ccc(S(=O)(=O)N(C)C[C@H]2Oc3ccc(NC(=O)NC4CCCCC4)cc3C(=O)N([C@H](C)CO)C[C@@H]2C)cc1,-9.7%,-19.4%,6.7%
Cc1cccc(C)c1NC(=O)COC(=O)/C=C/c1ccc(S(=O)(=O)N2CCOCC2)cc1,-14.7%,-15.9%,3.8%
COc1ccc(CNC(=O)Cn2cnc3c(OCc4ccccc4)ncnc32)cc1,-11.2%,-19.8%,1.2%
CC(C)CNC(=O)/C=C/C=C/c1ccc2c(c1)OCO2,1.1%,56.3%[activator],-11.5%
COc1ccc(C2=CC(=O)C[C@H](c3ccc(Cl)cc3)C2)cn1,-19.9%,-22.2%,-1.8%
CCC/C(C#Cc1ccsc1)=C1/c2ccccc2C(=O)N1c1ccccc1,8.5%,?,8.9%
CN(CC(=O)NCc1ccc2c(c1)OCO2)S(=O)(=O)c1ccc(Cl)cc1,-4.4%,-10.5%,0.5%

# Source: PubChem (National Center for Advancing Translational Sciences (NCATS))

# A portion of the library; the hit share may differ from the screen's.
